Source: PubChem
N370S GC mod: N370S glucocerebrosidase modulation, Gaucher chaperone candidate; N370S GC spleen homogenate, 4MU-glucoside fluorescence; actives 0.092% (n = 330,000); P04062; Potency, µM (titrated, usually from 59.4 µM), inactives show at the highest dose activity change, negative = inhibition, hits mostly inhibitors; AID 2101;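 further: 0% = full enzyme activity and -100% = no enzyme basal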
TDP1 block: TDP1 (human) enzyme inhibition. Q9NUW8. recombinant TDP1, AlphaScreen DNA substrate cleavage. Potency, µM (doses to about 130 µM), for the others: at the highest dose activity change, negative = inhibition, most hits filed as inhibitors. actives 0.28% (n = 350,000); further: nearly all actives have a fitted effect of over 40% in size
Target sequence (Q9NUW8 whole entry, looked up): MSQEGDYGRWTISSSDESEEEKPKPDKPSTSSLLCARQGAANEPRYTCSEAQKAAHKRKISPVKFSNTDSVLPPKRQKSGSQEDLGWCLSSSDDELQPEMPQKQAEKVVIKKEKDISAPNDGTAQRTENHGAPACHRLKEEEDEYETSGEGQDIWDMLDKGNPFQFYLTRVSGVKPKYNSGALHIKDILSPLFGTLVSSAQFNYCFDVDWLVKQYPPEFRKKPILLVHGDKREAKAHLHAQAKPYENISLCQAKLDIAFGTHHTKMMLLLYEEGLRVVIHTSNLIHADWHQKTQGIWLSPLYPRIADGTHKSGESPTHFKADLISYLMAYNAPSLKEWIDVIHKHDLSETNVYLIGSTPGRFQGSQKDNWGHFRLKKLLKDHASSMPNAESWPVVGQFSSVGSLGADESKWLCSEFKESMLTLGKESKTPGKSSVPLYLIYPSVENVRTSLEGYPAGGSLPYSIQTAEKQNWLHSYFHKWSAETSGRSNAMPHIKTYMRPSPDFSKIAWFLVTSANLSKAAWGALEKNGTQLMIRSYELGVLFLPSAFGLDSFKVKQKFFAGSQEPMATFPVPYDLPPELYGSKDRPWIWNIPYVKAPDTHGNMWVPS
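Recombinant human Tdp1 (E. coli-expressed, 1 nM final) preincubated with compounds 15 min at room temperature, then 5'-biotin/3'-phosphotyrosine-FITC DNA substrate (15 nM final) added for 5 min. AlphaScreen beads (10 ug/ml final) added 10 min; cleavage lowers signal.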
* hit, by the source's call; / = no result given; [ ] = dose if it differs, or a comment. The call rests on the fitted dose curve; in most records, active means well fitted curve in the direction sought with a large enough effect; inconclusive means small, poorly fitted or top-dose-only effect, or another doubt; inactive means no such curve, though single readings can be large; an effect the other way counts as inactive or inconclusive. Unless noted, on the % scale 0 is the no-effect control and ±100 the full control effect; potency means the concentration at half of the fitted maximal effect.

1	Cc1cc(C)n2nc(SCc3nnc(-c4ccccc4Br)o3)nc2n1
2	COc1cc(/C=N/NC(=O)c2cccnc2)ccc1OC(=O)c1ccco1
3	COc1ccc(C)cc1NC(=O)CSc1nnc(COc2ccc(Cl)cc2)n1Cc1ccco1
4	COc1ccc(N2C(=O)CCC(C(=O)N3CCOCC3)C2c2ccc(F)cc2)cc1 (centres undefined)
5	O=C(CN(CC1CCCO1)S(=O)(=O)c1ccc(S(=O)(=O)NCC2CCCO2)cc1)Nc1ccccc1 (centres undefined)
6	C[C@H](N=C(NC#N)Nc1ccncc1)C(C)(C)C
7	CC(C)NS(=O)(=O)c1ccc(OCC(=O)NCc2ccc3c(c2)OCO3)c(Cl)c1
8	CN(C)S(=O)(=O)c1cccc(NC(=S)N/N=C/C(=O)c2ccccc2)c1
9	COc1ccc(NC(=O)c2cc(-c3cc(OC)c(OC)c(OC)c3)nc3ccccc23)c(OC)c1
10	CCOc1ccc2[nH]c(C)c(CN3CCCCCC3)c(=O)c2c1

| assay / compound | 1 | 2 | 3 | 4 | 5 | 6 | 7 | 8 | 9 | 10 |
| --- | --- | --- | --- | --- | --- | --- | --- | --- | --- | --- |
| N370S GC mod | -1% | -6% | 19% | 2% | -11% | -4% | 2% | 13% | -6% | -2% |
| TDP1 block | -2% | 0% | 1% | 7% | 4% | 9%[56.1 µM] | 2% | 3% | 9% | / |

11	CCOC(=O)Cc1csc(NC(=O)c2ccc(S(=O)(=O)N3CCOCC3)cc2)n1
12	C=CCc1c(C)nc2cc(-c3ccccc3)[nH]n2c1=O
13	CCOc1ccc(C2C(C(=O)c3ccc(C)o3)=C(O)C(=O)N2Cc2cccnc2)cc1 (centres undefined)
14	CCOC(=O)C/C(C)=N/NC(=O)c1cccs1
15	CC(Oc1ccc2c(-c3ccccc3)cc(=O)oc2c1)C(=O)N[C@H](Cc1c[nH]c2ccccc12)C(=O)O (some centres undefined)
16	O=C(COC(=O)c1cc(S(=O)(=O)N2CCCCC2)ccc1N1CCOCC1)NCCc1ccc(F)cc1
17	NC(CCCCCP(=O)(c1ccccc1)c1ccccc1)C(=O)O (centres undefined)
18	COc1cccc(C(=O)NCCCNC(=O)c2ccco2)c1
19	N=c1c(S(=O)(=O)c2ccc(Br)cc2)cc2c(=O)n3ccccc3nc2n1Cc1ccco1
20	CC(C)c1ccc(CN2CCN(C(=O)CCl)CC2)cc1

| assay / compound | 11 | 12 | 13 | 14 | 15 | 16 | 17 | 18 | 19 | 20 |
| --- | --- | --- | --- | --- | --- | --- | --- | --- | --- | --- |
| N370S GC mod | -12% | -1% | -3% | -3% | -2% | 22% | -3% | -3% | -10% | -5% |
| TDP1 block | -4% | / | 8% | 5% | / | -2% | / | 0%[0.0935 µM] | 2% | 2% |

21	CCC/C=C1\CCCOC(C(=O)NCc2ccc(C)o2)(C(F)(F)F)C1 (centres undefined)
22	COc1ccccc1N1CCN(C(=O)c2ccc(N(C)S(=O)(=O)c3ccccc3)cc2)CC1
23	CSc1nsc(SCC(=O)Nc2cc(C(=O)O)ccc2C)n1
24	CC(=O)Nc1ncc2c(n1)CC(c1ccco1)CC2=O (centres undefined)
25	C=CCCCCCCCCc1nc(SCC(=O)O)n[nH]1
26	CCOC(=O)c1nc(C)sc1-c1ccnn1S(=O)(=O)c1cccc(Cl)c1
27	CCc1ccc(C(=O)Nc2ccc3c(c2)n(C)c(=O)n3C)cc1
28	COC(=O)c1ccc(C2C(Oc3ccccc3)C(=O)N2CCc2ccc(F)cc2)cc1 (centres undefined)
29	CC(Oc1ccccc1)C(=O)N1CCN(c2ccc(N3CCOCC3)nn2)CC1 (centres undefined)
30	COc1ccc(C(=O)Nc2ccc(N3CCN(C(=O)c4ccccc4C)CC3)cc2)cc1

| assay / compound | 21 | 22 | 23 | 24 | 25 | 26 | 27 | 28 | 29 | 30 |
| --- | --- | --- | --- | --- | --- | --- | --- | --- | --- | --- |
| N370S GC mod | -12% | -11% | 0% | 2% | 2% | 5% | 0% | -11% | 1% | 0% |
| TDP1 block | 5% | 15% | 0% | / | 7% | -3% | / | 2% | / | -8% |

31	CC(=O)c1sc(NC(=O)c2ccc(Br)o2)nc1C
32	COc1cccc(-c2nc3ccc(O)cc3c(=O)o2)c1
33	Cc1nnc(SCc2nc3ccccc3s2)n1-c1ccccc1
34	CCn1c(C)cc2c(c1=O)C(c1ccccc1)C(C(=O)OC)=C(N)O2 (centres undefined)
35	CC(=O)N1c2ccc(S(=O)(=O)N3CCC(C(=O)Nc4cc(C)ccn4)CC3)cc2CC1C (centres undefined)
36	Cc1cn(S(=O)(=O)c2cc(Br)ccc2Br)cn1
37	Cc1ccc(-n2c(=O)c3cccnc3n2CC(=O)NCc2ccc(F)cc2)cc1C
38	Cc1ccc(-c2ccc(=O)n(Cc3ccc(F)cc3Cl)n2)cc1
39	CCn1c(=O)n(CC)c2cc(S(N)(=O)=O)c(C)cc21
40	COc1ccc(NC(=O)COC(=O)c2cnccn2)cc1Cl

| assay / compound | 31 | 32 | 33 | 34 | 35 | 36 | 37 | 38 | 39 | 40 |
| --- | --- | --- | --- | --- | --- | --- | --- | --- | --- | --- |
| N370S GC mod | -2% | 25% | -17% | 7% | -5% | -10% | / | -1% | 5% | 9% |
| TDP1 block | 6% | 0% | 5% | 4% | 0% | 3% | -8% | / | 0% | -2% |

41	CCN(CC(=O)Nc1c(F)cccc1F)C(=O)c1n[nH]c2ccccc12
42	COc1ccc(C(=O)NCC(=O)Nc2cccc(S(=O)(=O)NCc3ccco3)c2)cc1OC
43	Cc1ccccc1N1C(=O)CC(c2c[nH]c3ccccc23)C1=O (centres undefined)
44	CCOC(=O)CSc1nnc(CSc2nc3sc4c(c3c(=O)[nH]2)CCC4)n1C
45	O=C(Nc1ccc2c(c1)OCO2)C1CCCCN1S(=O)(=O)c1ccc(F)cc1 (centres undefined)
46	O=C(C1=C[C@H](c2ccc(C(F)(F)F)cc2)C[C@H](OCc2ccc(CO)cc2)O1)N1CCOCC1
47	O=C(NC(=O)c1cccc(F)c1)Nc1nc(-c2ccc(F)cc2)cc(C(F)(F)F)n1
48	NNC(=O)c1csc(-c2ccccc2)n1
49	CCOc1ccccc1-c1nnc(SCC(=O)NC2CC2)n1CC
50	CCN(CC)S(=O)(=O)c1ccc(N2CCCC2)c(NC(=O)CN2C(=O)NC3(CCCC3)C2=O)c1

| assay / compound | 41 | 42 | 43 | 44 | 45 | 46 | 47 | 48 | 49 | 50 |
| --- | --- | --- | --- | --- | --- | --- | --- | --- | --- | --- |
| N370S GC mod | -1% | -8% | -4% | 17% | -5% | 5% | -6% | -2% | -20% | -16% |
| TDP1 block | 5% | 6% | -3% | 1% | 5% | 4% | 0% | 1% | 2% | -6%[0.505 µM] |

Part of the list above in a different format.
#	smiles	N370S GC mod	TDP1 block
1	Cc1cc(C)n2nc(SCc3nnc(-c4ccccc4Br)o3)nc2n1	-1%	-2%
2	COc1cc(/C=N/NC(=O)c2cccnc2)ccc1OC(=O)c1ccco1	-6%	0%
3	COc1ccc(C)cc1NC(=O)CSc1nnc(COc2ccc(Cl)cc2)n1Cc1ccco1	19%	1%
4	COc1ccc(N2C(=O)CCC(C(=O)N3CCOCC3)C2c2ccc(F)cc2)cc1 (centres undefined)	2%	7%
5	O=C(CN(CC1CCCO1)S(=O)(=O)c1ccc(S(=O)(=O)NCC2CCCO2)cc1)Nc1ccccc1 (centres undefined)	-11%	4%
6	C[C@H](N=C(NC#N)Nc1ccncc1)C(C)(C)C	-4%	9%[56.1 µM]
7	CC(C)NS(=O)(=O)c1ccc(OCC(=O)NCc2ccc3c(c2)OCO3)c(Cl)c1	2%	2%
8	CN(C)S(=O)(=O)c1cccc(NC(=S)N/N=C/C(=O)c2ccccc2)c1	13%	3%
9	COc1ccc(NC(=O)c2cc(-c3cc(OC)c(OC)c(OC)c3)nc3ccccc23)c(OC)c1	-6%	9%
10	CCOc1ccc2[nH]c(C)c(CN3CCCCCC3)c(=O)c2c1	-2%	/
11	CCOC(=O)Cc1csc(NC(=O)c2ccc(S(=O)(=O)N3CCOCC3)cc2)n1	-12%	-4%
12	C=CCc1c(C)nc2cc(-c3ccccc3)[nH]n2c1=O	-1%	/
13	CCOc1ccc(C2C(C(=O)c3ccc(C)o3)=C(O)C(=O)N2Cc2cccnc2)cc1 (centres undefined)	-3%	8%
14	CCOC(=O)C/C(C)=N/NC(=O)c1cccs1	-3%	5%
15	CC(Oc1ccc2c(-c3ccccc3)cc(=O)oc2c1)C(=O)N[C@H](Cc1c[nH]c2ccccc12)C(=O)O (some centres undefined)	-2%	/
16	O=C(COC(=O)c1cc(S(=O)(=O)N2CCCCC2)ccc1N1CCOCC1)NCCc1ccc(F)cc1	22%	-2%
17	NC(CCCCCP(=O)(c1ccccc1)c1ccccc1)C(=O)O (centres undefined)	-3%	/
18	COc1cccc(C(=O)NCCCNC(=O)c2ccco2)c1	-3%	0%[0.0935 µM]

Next structures
51	NNC(=O)c1nc(-c2ccccc2)cc(-c2ccccc2)n1
52	O=C(Nc1cccc(-c2cn3ccccc3n2)c1)c1cnccn1
53	O=[N+]([O-])c1ccc(O)c(/C=N/Nc2ccccn2)c1
54	Cc1c(Cl)cccc1NC(=O)NCc1cccnc1
55	COc1ccccc1N1C(=NC(=O)COc2ccccc2)SC2CS(=O)(=O)CC21 (centres undefined)
56	CC(=O)Nc1ccc(-n2nnnc2SCC(=O)N2CCN(C(=O)c3ccco3)CC2)cc1
57	O=C(CNC(=O)C1CCCCC1)NC1=NCCS1
58	O=C(Nc1ccc(S(=O)(=O)Nc2cnc3ccccc3n2)cc1)c1ccc(Br)o1
59	Cc1ccc(C(=O)O/N=C(\N)Cc2cccs2)c(Cl)c1
60	Cc1ccc([C@@H]2[C@@H]3C(=O)N(C)C(=O)[C@@H]3[C@]3(C)C(=O)N(Cc4ccc(-c5ccccc5)cc4)CC(=O)N23)o1

| assay / compound | 51 | 52 | 53 | 54 | 55 | 56 | 57 | 58 | 59 | 60 |
| --- | --- | --- | --- | --- | --- | --- | --- | --- | --- | --- |
| N370S GC mod | 3% | 8% | 6% | -18% | -15% | -9% | -3% | -6% | -13% | 0% |
| TDP1 block | / | -2% | 8% | 1%[56.1 µM] | 2% | 0% | 3% | 4% | -3% | / |

61	O=C(NCCN1CCOCC1)C1CCC(=O)N1Cc1ccccc1Cl (centres undefined)
62	CN(CC(=O)N1CCC(C(N)=O)CC1)S(=O)(=O)c1ccc2ccccc2c1
63	COc1ccc(CNCCNC(=O)c2cccs2)c(OC)c1OC
64	Cc1nnc(NC(=O)C2CCN(C(=O)c3ccco3)CC2)s1
65	CCCN(CCC)CCCNC(=O)CC(C(=O)N1CCc2ccccc21)n1ccnc1 (centres undefined)
66	CCc1ccccc1N(CC)C(=O)CCc1nc(-c2ccc(C)cc2)no1
67	CCOCCCN1CC(C(=O)NCc2ccc3c(c2)OCO3)CC1=O (centres undefined)
68	Cc1cccc(NC(=O)COC(=O)c2ccc(C)c(S(=O)(=O)N3CCCCC3)c2)c1
69	Cc1ccc(NC(=S)N(C)C)cc1C
70	CCOC(=O)c1ccc(NS(=O)(=O)c2cnc[nH]2)cc1

| assay / compound | 61 | 62 | 63 | 64 | 65 | 66 | 67 | 68 | 69 | 70 |
| --- | --- | --- | --- | --- | --- | --- | --- | --- | --- | --- |
| N370S GC mod | 7% | 0% | 2% | -20% | 1% | 0% | -3% | / | 8% | -2% |
| TDP1 block | 5% | / | -3% | 1% | 4% | 4% | 0% | -17% | 4% | 4% |

71	Cn1c(SCC(=O)N(Cc2ccccc2)C(C)(C)C)nc2ccccc21
72	Cc1ccc(-n2cc[nH]c2=S)cc1C
73	Cc1ccc(S(=O)(=O)N2CCN(C(=O)c3ccc(Cl)nc3)CC2)cc1
74	CC1(C)CC(=O)C2=C(C1)OC(N)=C(C#N)C21CCC2(CC1)OCCO2
75	CN1CCc2c(sc(N)c2C(N)=O)C1
76	Nc1cc(C(=O)c2ccccc2)ccc1N1CCOCC1
77	CCOc1ccc(C(=O)N(CN2CCCC2=O)c2ccccc2)cc1
78	COc1cccc(OCCOc2c(OC)cccc2OC)c1
79	O=C(Nc1cccc(Cl)c1)Nc1nc(-c2ccc(Cl)cc2)cs1
80	O=C(NCCN1CCCCC1)Nc1ccccc1Cl

| assay / compound | 71 | 72 | 73 | 74 | 75 | 76 | 77 | 78 | 79 | 80 |
| --- | --- | --- | --- | --- | --- | --- | --- | --- | --- | --- |
| N370S GC mod | 23% | -8% | -12% | -28% | 9% | -2% | -12% | -11% | 4% | -4% |
| TDP1 block | 2% | -2% | 0% | 0% | 5% | 3%[56.1 µM] | 5% | -9% | -2% | / |

81	COc1ccccc1OCC(=O)Nc1ccc2c(c1)OCCO2
82	CCc1cccc(NC(=O)C2CCCN2S(=O)(=O)c2ccccc2C(F)(F)F)c1 (centres undefined)
83	Cc1cc(OCC(O)CN(C)C(=O)C(C)Oc2ccccc2)ccc1Cl (centres undefined)
84	COc1cc2c(cc1OC)CN(C(=O)CN1C(=O)NC3(CCC(C)CC3)C1=O)CC2 (centres undefined)
85	N#Cc1ccc(C(=O)Nc2cc(-c3ccc(F)cc3)nn2-c2ccccc2)cc1
86	CCOC(=O)c1cc(C(C)(C)C)oc1CN
87	O=C(Nc1c[nH]c(=O)[nH]c1=O)c1cccc(F)c1
88	COc1ccc(C(=O)Nc2ccc3ccccc3c2)cc1

| assay / compound | 81 | 82 | 83 | 84 | 85 | 86 | 87 | 88 |
| --- | --- | --- | --- | --- | --- | --- | --- | --- |
| N370S GC mod | 0% | 0% | -3% | / | 5% | -12% | 6% | -3% |
| TDP1 block | / | -6%[0.505 µM] | / | -1% | / | 4% | / | / |

Only part of the results is shown, and most or all hits are left out here.
